Rango dissoc inh – qHTS Assay for Inhibitors of RanGTP induced Rango (Ran-regulated importin-beta cargo) - Importin beta complex dissociation. Biochemical FRET Rango-importin beta, RanGTP-induced dissociation. Potency, µM (highest dose often 46.1 µM), inactives show top-dose activity change, negative = inhibition. Snurportin-1 (Homo sapiens) + GTP-binding nuclear protein Ran (Homo sapiens) + Importin …. actives 0.071% (n = 340,000). AID 540253, 2011; active means falling FRET ratio curve, often poorly fitted, with flat reads before Ran was added; inconclusive means other falling curves, or compound fluorescence or quenching; inactive means flat or rising ratio curve;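 also: potency is read from the fitted curve at half-maximal effect; % of control where 0% means no effect; nearly all actives have a fitted effect of over 45% in size; -100% = wells without RanGTP and RCC1; the record marks most hits as doubtful in a second field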
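Rango/importin beta premix (0.1/0.25 uM final), PBS + 1 mM DTT + 0.02% Tween-20 + 0.1% BSA; cpd 5 min RT; FRET pre-read; + RanGTP-RCC1 (0.6 uM Ran, 2 mM GTP, 0.2 uM RCC1); 45 min RT; FRET post-read, ex 430, em 486/530 nm.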
GLA inh pH 4.5 – qHTS Assay for Inhibitors of Human alpha-Galactosidase at pH 4.5; Alpha-galactosidase A (Homo sapiens), P06280; 230,000 tested, under 10 active; AID 1467, 2008; purified enzyme, 4-MU-alpha-Gal fluorescence, pH 4.5; activity change, negative = inhibition, % at 105 µM; inconclusive = small, poorly fitted or top-dose-only inhibition, or a rising curve; inactive = flat fitted curve, though single readings scatter; no compound was filed as active;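 also: 0% = full activity with enzyme and -100% = basal without enzyme; dose as in the result columns while the protocol names 77 µM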
Target sequence (P06280 whole entry, looked up): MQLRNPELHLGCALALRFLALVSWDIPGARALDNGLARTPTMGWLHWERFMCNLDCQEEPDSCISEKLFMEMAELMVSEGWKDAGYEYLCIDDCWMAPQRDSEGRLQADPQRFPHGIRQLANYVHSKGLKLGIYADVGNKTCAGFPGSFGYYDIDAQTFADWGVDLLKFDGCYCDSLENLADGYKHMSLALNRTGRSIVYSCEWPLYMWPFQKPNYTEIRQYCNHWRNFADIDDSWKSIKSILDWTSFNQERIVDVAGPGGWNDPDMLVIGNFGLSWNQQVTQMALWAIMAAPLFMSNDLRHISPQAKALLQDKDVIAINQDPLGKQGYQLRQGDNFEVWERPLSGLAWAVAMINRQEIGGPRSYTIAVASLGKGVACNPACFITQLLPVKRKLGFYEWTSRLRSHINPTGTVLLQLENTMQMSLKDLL
miR-21 reporter – qHTS Assay for Modulators of miRNAs and/orActivators of miR-21; HeLa miR-21 FLuc reporter, luciferase, 48 h; 340,000 tested, under 10 active; Potency, µM (doses to about 38.3 µM), without a hit: at the highest dose reporter change, positive = more light; AID 2288, 2010; active = well fitted rising curve with a large enough effect; inconclusive = small, poorly fitted or top-dose-only effect; inactive = no such curve, though single readings can be large or run the other way;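 also: % of control where 0% means no effect; miR-21 action dims this reporter so a rising signal means less miR-21 action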
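Compounds were titrated across several concentrations (up to approximately 40 uM) and incubated 48 hours with HeLa miR-21-FLuc reporter cells (miR-21 target sequence downstream of FLuc, endogenous miR-21). Readout was firefly luciferase luminescence after lytic detection reagent.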
Rango-impB inh – qHTS Assay for Inhibitors of Rango (Ran-regulated importin-beta cargo) - Importin beta complex formation. Importin subunit beta-1 (Homo sapiens), Q14974. Rango CFP/YFP FRET sensor + importin beta, 45 min. Potency, µM (doses to about 92.2 µM), without a hit: top-dose inhibition of complex formation. actives 0.031% (n = 340,000). AID 540263, 2011; active = rising FRET ratio curve, often small or poorly fitted; inconclusive = mostly compound fluorescence or quenching in the first reads; inactive = flat curves in all reads;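 also: potency is read from the fitted curve at half-maximal effect; 0% = DMSO wells and 100% = buffer wells lacking importin beta; nearly all actives have a fitted effect of over 15% in size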
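Inhibition scored from the CFP 486 nm/YFP 530 nm FRET ratio 45 min after adding 0.125 microM importin beta to 50 nM Rango biosensor preincubated 5 min with compound (room temperature, PBS with DTT, Tween-20, BSA). No-importin wells as positive control.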
An asterisk follows results filed as active; ? = inconclusive; . = no result given; & = joins results of further samples; [ ] = another dose, or the depositor's remark. The list is partial; count on the stated rates, not on these rows.

Rango dissoc inh,GLA inh pH 4.5,miR-21 reporter,Rango-impB inh,Structure
-19.4%,-12.2,-11.8%,?,O=C(CSCCN1C(=O)c2ccccc2C1=O)Nc1ccc2ccccc2c1
15.8%,3.4,-5.2%,-0.6%,Cc1ccc(C(=O)NCC(=O)OCC(=O)NC(C)c2ccccc2)s1 (stereo unspecified)
?,-2.1,-0.9%,?,Cc1cc(-n2ccnc2)n2c(nc3ccccc32)c1C#N
-27.8%,-18.0,7.6%,?,COc1cc(NC(=O)COC(=O)/C=C/c2ccc(O)c(OC)c2)cc(OC)c1
-19.6%,.,-10.6%,-4.5%,O=C(c1ccc(N2CCOCC2)c([N+](=O)[O-])c1)N1CCN(Cc2ccccc2)CC1
0.0%,-5.6,-3.3%,0.1%,COc1ccc(/C=C/C(=O)NCCSCc2ccco2)cc1OC
18.4%,1.9,-7.2%,-3.4%,CCn1nnnc1NCc1ccc(OCc2ccc(F)cc2Cl)c(OC)c1
9.3%,.,.,-0.6%,CC(=O)C[C@@H](O)CC(=O)[C@@H]1OC(=O)CC/C=C\Cc2ccccc21
-6.3%,-5.5,-59.1%,1.2%,COC(=O)c1ccc(NC(=O)CSc2ccccc2)cc1
-26.6%,3.7,-76.6%,4.4%,CCCCc1ccc(-c2ccc(Br)cc2)nc1
0.7%,.,.,-0.2%,CC1CC(C)CN(c2nc3c(c(=O)n(C)c(=O)n3C)n2CCSc2nc3ccccc3o2)C1 (stereo unspecified)
-19.4%,.,-0.1%,0.4%,CCOc1ccc(C(=O)NN2CCOCC2)cc1

Individual results from the entries so far.
COC(=O)c1ccc(NC(=O)CSc2ccccc2)cc1 @ miR-21 reporter: -59.1%
CCn1nnnc1NCc1ccc(OCc2ccc(F)cc2Cl)c(OC)c1 @ Rango-impB inh: -3.4%
O=C(c1ccc(N2CCOCC2)c([N+](=O)[O-])c1)N1CCN(Cc2ccccc2)CC1 @ Rango dissoc inh: -19.6%

The list goes on.
Rango dissoc inh,GLA inh pH 4.5,miR-21 reporter,Rango-impB inh,Structure
-2.3%,2.0,-0.2%,0.4%,C#CCO[C@@H]1C[C@H](n2ccc(NC(=O)c3ccccc3)nc2=O)O[C@@H]1CO
-6.3%,.,2.3%,-1.2%,CC(NC=O)c1nc2ccccc2n1CCc1ccccc1 (stereo unspecified)
1.4%,5.4,-0.9%,0.1%,c1ccc(Nc2ccccn2)nc1
1.9%,-22.1,-1.1%,1.5%,Cc1cc(OCC(F)(F)C(F)(F)C(F)(F)C(F)(F)C(F)(F)C(F)F)nc(N)n1
-3.1%,8.3,-3.4%,2.3%,Cc1cc(C)c(-c2noc(C(=O)OC(C)(C)C)c2C(=O)OC(C)(C)C)c(C)c1
12.1%,5.2,-7.2%,6.2%,Cc1cccc(OCC(=O)OC2CCN(C)CC2)c1
0.6%,2.4,-41.6%,1.0%,O=C(COC(=O)c1cccc(Br)c1)Nc1cccc2c1C(=O)c1ccccc1C2=O
0.5%,-3.2,3.8%,-1.8%,Cc1ccc(C(=O)CSc2nnc3c4ccccc4nc(Cc4ccccc4)n23)cc1
-7.3%,0.8&-0.3,10.0%,-0.2%,C#CCCOC(=O)N1C2=NC(C(=O)OC)=C(C(=O)OC)[C@@H]3N(C)c4ccccc4[C@]23C[C@H]1C(=O)OC
-14.2%,-2.2,-6.3%,?,CCSCCOC(=O)C1=C(C)NC2=C(C(=O)CCC2)C1c1coc2ccccc2c1=O (stereo unspecified)
-7.8%,-0.5,0.2%,-0.4%,Cc1nc2nc(-c3cccnc3)[nH]n2c(=O)c1C
?,-2.7,-26.2%,-2.9%,CCc1ccc(C(=O)CSc2nc3ccccc3c(=O)[nH]2)cc1
-4.4%,.,4.9%,-1.0%,COc1ccc(CNC(=O)N2CCN(c3ccccc3OC)CC2)cc1
1.3%,.,.,3.6%,COc1ccc([C@H]2CC(=O)C=C(c3ccc(CNC(=O)OC(C)(C)C)cc3)C2)cc1
-5.6%,2.6,-14.3%,0.5%,CC(C)(C)C(=O)[C@@H]1[C@@H]2C(=O)N(c3ccc4c(c3)OCCO4)C(=O)[C@@H]2C2c3ccccc3C=CN21 (stereo partly specified)
36.6%,.,0.6%,-5.0%,Nc1cc[n+](CC(=O)c2ccccc2)cc1
-8.3%,-9.1,0.9%,-2.6%,Cc1ccc(S(=O)(=O)N2CCN(c3cnn(-c4ccccc4)c(=O)c3Cl)CC2)cc1
1.1%,.,0.1%,1.4%,NNc1nc(-c2ccccc2Cl)c2cc(Br)ccc2n1
-11.8%,-8.6,-4.1%,?,CCC(C)N1C(=O)S/C(=C/c2ccc3c(c2)n(C)c(=O)n3C)C1=O (stereo unspecified)
1.8%,-26.2,-7.5%,-2.5%,COC(=O)C(C)n1cnc2c(nnn2Cc2ccc(Cl)cc2)c1=O (stereo unspecified)
-0.7%,.,-0.8%,-0.7%,CC(Oc1cc2oc(=O)c3c(c2cc1Cl)CCCC3)C(=O)NCc1cccnc1 (stereo unspecified)
-0.2%,-9.9[21.1 µM],0.3%,-3.0%,O=C(NCCCN1CCCC1)c1cc2c(Cl)nc3ccccc3c2s1
17.0%,.,.,-0.2%,C=CCC[C@@H](Cc1ccc(F)cc1)C(=O)OC[C@@H](Cc1ccccc1)NC(=O)[C@H](CC=C)CC(=O)NCCO
1.2%,7.3,-6.7%,2.0%,C=CCOc1cccc(C2/C(=C(/O)c3ccc(F)cc3)C(=O)C(=O)N2CCN2CCOCC2)c1 (stereo unspecified)
?,-1.6,5.3%,-2.3%,COc1cccc(NC(=O)CN(C)C(C)C(=O)Nc2ccc(S(=O)(=O)N3CCOCC3)cc2)c1 (stereo unspecified)
4.5%,-0.8,-12.9%,1.7%,CN(C)C(/C=C/Nc1ccc([N+](=O)[O-])cc1)=C(C#N)C#N
14.2%&-1.0%,1.2&-1.5,1.6%&-6.8%,5.5%&5.9%,COC(=O)c1ccc(NC(=O)CCN2CCCCC2)cc1
.,8.0,-3.5%,.,CC(=O)c1cc2c(cc1NS(=O)(=O)c1ccccc1C)OCO2
0.6%,.,.,-2.7%,Cc1ccc(S(=O)(=O)n2cc(-c3ccccc3)c3ccccc32)cc1
0.0%,-0.4,-1.0%,-2.8%,Cc1ccc(S(=O)(=O)C2(C(=O)Nc3cccc(F)c3)CC2)cc1
?,-27.5,?,?,COc1cc(C2C(C#N)=C(N)N(Nc3ccccc3)C3=C2C(=O)CC(C)(C)C3)ccc1OCc1cccc(F)c1 (stereo unspecified)
6.4%,4.6,16.8%,-6.6%,COc1ccc(N2CCN(C(=O)CSc3nnc4n3C(C)(C)Cc3ccccc3-4)CC2)cc1
17.8%,4.3,-29.1%,-0.5%,CCOc1ccc(NC(=O)CNC(=O)c2cccs2)cc1
-1.7%,-2.8,-12.7%,-2.4%,Cc1sc(NC(=O)C(C)C)c(C(=O)Nc2ccccc2)c1C
5.5%,.,.,1.6%,O=C(OCC(=O)c1c[nH]c2ccccc12)c1cncc(Br)c1
.,-7.7,25.3%,.,COc1ccc(N(C)S(=O)(=O)c2cccc(C(=O)Nc3ccc(OC)nc3)c2)cc1
9.1%,-0.9,-4.0%,-3.1%,C/C(=N/NC(=O)CN1CCN(S(=O)(=O)c2ccc(Br)cc2)CC1)c1cccnc1
-1.4%,.,.,0.8%,CC1(C)Cc2cccc(OCC(=O)NCc3ccc(F)cc3)c2O1
-4.4%,.,0.4%,-1.9%,COc1cc(C(=O)NC(=S)Nc2ccccc2N2CCOCC2)cc(OC)c1OC
7.9%,3.5,-6.8%,2.2%,COc1ccc(NC(=S)N/N=C2/CCCc3c(C)cc(C)cc32)cc1
-19.3%,-13.1,-8.3%,-1.7%,CSCCC(C(=O)OCC(=O)c1ccc(C)c(C)c1)N1C(=O)c2ccccc2C1=O (stereo unspecified)
-11.2%,1.5,-10.8%,-1.3%,Cc1ccc(-c2nn(CC(=O)N3CCOCC3)c(=O)c3ccccc23)cc1S(=O)(=O)N(C)C
-6.5%,-0.2,7.8%,-0.7%,COc1c(C)cc(NC(=O)c2ccc3c(c2)NC(=O)CO3)cc1C
-6.9%,.,-2.4%,-1.8%,Nc1nonc1-n1nnc(C(=O)N/N=C/c2cccc(Cl)c2)c1-c1ccc2c(c1)OCO2
-5.4%,-17.6,-25.1%,?,CCOC(=O)C1(Cc2cccc(OC)c2)CCN(Cc2cccnc2)CC1
-10.3%,.,.,-0.4%,COc1cc(OC)cc(C(=O)NNC(=O)CCOc2ccccc2OC)c1
0.5%,-9.7[21.1 µM],-3.5%,5.0%,CCOC(=O)C(CC)Sc1ccc2nnc(CCNS(=O)(=O)c3ccccc3)n2n1 (stereo unspecified)
1.2%,6.5,-56.5%,0.0%,CCOC(=O)c1cc2ccc3ccccc3c2s1
-0.2%,.,.,-0.8%,Cc1noc(C)c1COc1ccc(C(=O)Nc2ncccc2O)cc1
4.1%,0.8,11.7%,0.3%,O=c1nc(Nc2ccc(OCc3ccccc3)cc2)sc2ncccc12
-1.7%,.,-5.3%,-1.1%,O=[N+]([O-])c1cc([N+](=O)[O-])c(Oc2cccnc2Br)cc1NN1CCCCC1
8.8%,.,-5.5%,0.5%,COc1ccc(NC(=O)NNC(=O)COc2cc(C)c(Cl)c(C)c2)c(OC)c1
-9.2%,-2.8,2.0%,2.5%,O=C(CSc1ccc([N+](=O)[O-])cn1)Nc1ccc(N2CCOCC2)c(Cl)c1
-1.8%,8.5,-11.6%,0.2%,O=C(Cc1ccccc1)Nc1nc(=O)c2ccccc2s1
?,0.1,-1.5%,?,CCCCn1c(=O)nc2n(-c3ccc(C)cc3)c3ccccc3cc-2c1=O
-0.6%,3.4,22.1%,-0.9%,CCOC(=O)c1sc2nc(SCC#N)n(CCCN3CCCC3=O)c(=O)c2c1C
?,.,-5.7%,-0.7%,Cc1ccccc1-c1cc(C(=O)N2CCCC2)c2ccccc2n1
-7.1%,-3.1,-4.7%,-0.6%,Cc1ccc2nc(-c3ccc4c(c3)OCCO4)cc(C(=O)O)c2c1
8.0%,3.5,-0.9%,5.4%,COc1ccc(Cl)cc1N(CC(=O)NC(C(C)C)C(C)C)S(C)(=O)=O
-2.2%,.,.,1.9%,OCC[C@H]1C[C@H](O)[C@@H](O)[C@]2(OCCc3ccccc32)O1

Continuation:
Rango dissoc inh,GLA inh pH 4.5,miR-21 reporter,Rango-impB inh,Structure
15.1%,8.2,-6.4%,-6.6%,CCSc1n[nH]c(=O)[nH]c1=O
0.8%,-2.2,-1.9%,-0.7%,CCNC(=O)COC(=O)/C=C/c1cccc(F)c1
-8.6%,-4.7,-3.4%,-6.9%,C/C(=N/NC(=O)CNS(=O)(=O)c1ccc(C)cc1)c1cccc([N+](=O)[O-])c1
12.3%,.,.,-4.1%,CN(C)CCC(C(=O)c1ccccc1)c1ccccn1 (stereo unspecified)
-0.3%,.,.,3.4%,C=CCC[C@@H](Cc1ccc(F)cc1)C(=O)OC[C@@H](NC(=O)[C@@H](CC=C)CC(=O)N[C@@H](CO)Cc1ccccc1)C(C)(C)C
1.8%,6.6,-0.9%,5.2%,Cc1cccc(NC(=S)NC23CN4CN(CN(C4)C2)C3)c1
17.7%,-6.8,-0.3%,-3.0%,O=C1/C(=C/c2ccc(C(=O)O)cc2)CCC/C1=C\c1ccc(C(=O)O)cc1
18.4%,.,.,0.1%,COc1cn(-c2ccccc2)nc1C(=O)OCC(=O)Nc1ccc(C)c(C)c1
-6.1%,.,.,4.2%,COc1ccc(CN(C)C(=O)C2CCN(C(=O)Nc3ccccc3)CC2)cc1OC
2.6%,-5.3,-15.1%,0.0%,Cc1ccc(C(=O)N/C(=C/c2ccc(-c3ccc(Br)cc3)o2)C(=O)NC2CCS(=O)(=O)C2)cc1 (stereo unspecified)

Screens (PubChem)
